ALR inh – inhibitors of human sulfhydryl oxidase ALR; P55789; purified ALR, DTT oxidation, H2O2 HRP-luminol luminescence; inhibition, % (test concentration not listed); 3.8% of 290,000 active; AID 485317;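 active means mean and each replicate at 75% or more; inconclusive means only one of the two met; inactive means neither met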;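 further: stock transfer was 7.5 nL into about 7.5 µL; 0% = neutral wells and 100% = wells with inactivated enzyme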
rRNA inh HTS – inhibitors of bacterial rRNA selective over humanized ribosomes; E. coli WT GFP vs humanized-ribosome RFP mutants, fluorescence, 24 h; active compounds read low; DMSO median 0, no signal -100; GFP signal change (wild-type ribosome), % (no concentration beside the values); 1.6% of 350,000 active;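 active means significant combined selectivity score with lowered wild-type GFP, culture density cut under 30%, mutant RFP and density less affected; inactive means any of these conditions unmet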; further: one replicate is shown; some compounds called inactive have numbers as strong as hits
FGF22 binding – FGF22 (human) thermal shift binding; recombinant FGF22 thermal shift, SYPRO orange fluorescence; percent of sucrose octasulfate shift, DMSO zero; 1.5% of 340,000 active; calls only at 9.99 µM; AID 651658;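 active means melting point raised past a set limit in the mean and every replicate; inconclusive means no clear call; three in four hits are not shown here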
Vif A3G – HIV-1 Vif–A3G interaction blockers – biochemical, TR-FRET, GST-Vif 1-94, biotin-A3G peptide, dose response retest, primary screen (AID 1117319); inhibition, %; hits with a dose series show IC50 in µM; TR-FRET GST-Vif / biotin-A3G peptide binding; higher % means a stronger effect; test concentration not given here; strong numbers were not always called active; 0.57% of 260,000 active;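 active means above the screen mean plus three standard deviations and confirmed in dose response; inconclusive means results disagree or hit not tested in dose response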;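 further: Vif residues 1-94 fused to GST binding biotinylated APOBEC3G peptide 110-148; 0% = full assay without inhibitor and 100% = GST in place of GST-Vif; retest series ran down from 100 µM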
HNF4A DNA FP – change in binding of human HNF4 alpha to DNA. HNF4a-FITC DNA binding, fluorescence polarization, 1 h. P41235. 0.3% of 360,000 active. activity change, % at 10 µM; in the data active means activity change above about 30%, passing the limit was not always enough;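 further: controls were the assay level and a saturating level of protein; the project sought stronger binding though the title names inhibitors; some compounds called inactive have numbers as strong as hits; positive values seem to mean higher polarization but the record does not say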
Target sequence (P41235 whole entry, looked up): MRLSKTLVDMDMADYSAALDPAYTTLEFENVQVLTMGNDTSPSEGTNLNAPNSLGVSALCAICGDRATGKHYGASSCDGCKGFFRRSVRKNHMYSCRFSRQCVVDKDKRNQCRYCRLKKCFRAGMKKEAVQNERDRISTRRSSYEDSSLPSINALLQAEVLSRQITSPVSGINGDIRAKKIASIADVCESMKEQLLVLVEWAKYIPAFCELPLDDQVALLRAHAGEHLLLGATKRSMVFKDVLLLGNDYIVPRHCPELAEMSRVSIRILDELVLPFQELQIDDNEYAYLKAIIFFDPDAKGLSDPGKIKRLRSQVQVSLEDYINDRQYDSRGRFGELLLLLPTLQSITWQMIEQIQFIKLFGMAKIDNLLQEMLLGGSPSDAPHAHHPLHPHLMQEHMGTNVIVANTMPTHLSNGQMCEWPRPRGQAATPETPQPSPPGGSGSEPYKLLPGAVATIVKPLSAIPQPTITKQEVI
Ecoli growth – E. coli growth inhibition | Escherichia coli growth, OD600, 23 h; active compounds read low | OD600 absorbance (test concentration not listed) | 0.21% of 330,000 active | AID 1053175;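 active means OD600 absorbance below the run mean of sample wells minus 3.6 SD, in any replicate, cut at about 0.56 in these data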;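 further: stock transfer was 300 nL into about 60 µL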
MLL AF4-AF9 inh – inhibitors of human MLL-AF4/AF9 interaction; 0.47% of 350,000 active; AID 651704; AlphaScreen, biotin-AF4 peptide binding to FLAG-AF9; inhibition, % at 10 µM;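 active means every replicate reaching a set inhibition limit, whatever the replicate mean, cut at about 25% in these data; inconclusive means mean inhibition reaches that limit but some replicates miss it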;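 further: 0% = plate neutral control median and 100% = total signal loss; the record names both 10 and 1 µM as test concentration; the first replicate is given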
Target sequence (P42568 whole entry, looked up): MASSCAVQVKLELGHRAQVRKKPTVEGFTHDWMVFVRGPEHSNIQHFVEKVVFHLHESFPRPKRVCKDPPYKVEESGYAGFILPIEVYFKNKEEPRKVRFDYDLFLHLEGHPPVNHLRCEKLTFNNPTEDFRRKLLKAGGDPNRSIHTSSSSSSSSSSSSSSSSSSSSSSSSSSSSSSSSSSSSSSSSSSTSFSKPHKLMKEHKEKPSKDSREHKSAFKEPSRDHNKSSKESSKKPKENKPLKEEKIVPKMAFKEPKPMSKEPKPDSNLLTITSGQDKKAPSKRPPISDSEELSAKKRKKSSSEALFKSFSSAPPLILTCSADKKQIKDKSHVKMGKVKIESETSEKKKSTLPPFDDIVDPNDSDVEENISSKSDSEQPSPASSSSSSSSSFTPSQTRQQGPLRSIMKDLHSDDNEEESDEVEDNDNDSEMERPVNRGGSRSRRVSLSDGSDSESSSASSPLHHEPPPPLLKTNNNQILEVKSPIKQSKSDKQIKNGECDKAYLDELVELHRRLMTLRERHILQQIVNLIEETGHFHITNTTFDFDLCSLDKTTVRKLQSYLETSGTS
rRNA inh HTS OD600 – second read-out of rRNA inh HTS, no call of its own (marks repeat the call); OD600 change, %; measured here: OD600 growth;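 optical density of the mix in the first replicate; 0 = DMSO median and -100 = no signal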
rRNA inh HTS RFP – further read-out of rRNA inh HTS, marked with its call; RFP signal change, %; measured here: RFP humanized mutant strains;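 first replicate; 0 = DMSO median and -100 = no signal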
Starred values were filed as active, the others as inactive; i = inactive; ? = inconclusive; · = not tested or not shown; & = joins results of further samples.

SMILES | ALR inh | rRNA inh HTS | rRNA inh HTS OD600 | rRNA inh HTS RFP | FGF22 binding | Vif A3G | HNF4A DNA FP | Ecoli growth | MLL AF4-AF9 inh
O=C(CC(NCc1ccccn1)C(=O)O)Nc1ccccc1Cl (stereo not drawn) | -3.6 | 13.8 | 12.6 | 1.1 | i | 2.4% | 3.3 | 0.709 | -3.3
COc1ccc(/C=C/C(O)=C2/C(=O)NC3(C)CC2c2ccccc2O3)c(OC)c1OC (stereo not drawn) | · | -3.1 | 1.6 | 13.2 | i | 5.9% | 0.7 | 0.674 | 2.5
N#CCSc1ccccc1NC(=O)COC(=O)Cc1c[nH]c2ccccc12 | · | -3.4 | -7.4 | 4.4 | i | · | 4.2 | 0.648 | -1.0
COc1ccc(S(=O)(=O)N(C)C[C@H]2Oc3c(NS(=O)(=O)c4cccs4)cccc3C(=O)N([C@H](C)CO)C[C@@H]2C)cc1 | · | -6.3 | -11.7 | 0.0 | i | · | · | · | -9.1
C[C@@H]1CCCCO[C@H](CN(C)Cc2ccccc2)[C@@H](C)CN([C@H](C)CO)C(=O)c2cc(NS(=O)(=O)c3ccc(Cl)cc3)ccc2O1 | · | -1.8&0.8 | -23.1&-27.9 | -1.9&18.1 | i | 4.0% | -1.3 | · | 2.4&3.4
O=C(Cc1ccc2c(c1)OCCO2)N1CCN(S(=O)(=O)c2cccs2)CC1 | -10.4 | 8.3 | -2.0 | 2.8 | i | 70.2% | -0.1 | 0.694 | 1.8
O=C(Nc1ccccc1F)N1C[C@@H]2[C@H](c3ccccc31)[C@H](CO)N2C(=O)C1CC1 | · | 7.1 | 9.3 | 0.1 | i | · | · | · | 0.3
CCC(=O)c1ccc(OCC(O)CN2CCN(C(c3ccccc3)c3ccccc3)CC2)cc1 (stereo not drawn) | -5.4 | · | · | · | · | -1.4%&-3.6% | 0.3 | 0.629 | ·
Cc1ccc2[nH]c3c(=O)n(Cc4ccco4)cnc3c2c1 | · | 5.0 | 3.0 | 0.5 | i | 0.2% | -1.4 | 0.697 | -6.1
CCOc1ccccc1N1CC(C(=O)Nc2cc(Cl)ccc2C)CC1=O (stereo not drawn) | -2.0 | -1.5 | 0.9 | 0.6 | i | -1.9% | 3.6 | 0.674 | 0.8
COc1ccc(/C=N/NC(=O)c2ccc(Br)o2)cc1Cn1cc([N+](=O)[O-])cn1 | 1.4 | · | · | · | · | 19.6% | 0.8 | · | ·
Cc1c(Cl)cccc1NC(=S)NCCc1ccc(Cl)cc1 | · | -33.6 | -72.7 | 21.4 | i | · | 0.0 | 0.651 | 3.2
Cc1nc2cc(C(=O)OCC(=O)Nc3ccc(C#N)cc3)ccc2n1-c1ccccc1 | 18.2 | · | · | · | · | -3.8% | 1.2 | 0.721 | ·
CC(C)CN(Cc1c(O)ccc2c3c(c(=O)oc12)CCC3)CC(C)C | -3.3 | -0.6 | -11.6 | 0.1 | i | -2.7% | 2.4 | 0.683 | -1.1
CCOC(=O)C1=C(C)NC(C)=C(C(=O)OCC)C1 | 0.3&1.5 | 2.4&7.0 | -8.7&5.8 | -2.3&-1.8 | i | -6.7%&-0.7% | 0.4&7.5 | 0.616&0.688 | -0.1
Cc1ccc(S(=O)(=O)N2C[C@@H]3CCCC[C@@H]3[C@@H](C)[C@H]2CC(=O)c2ccccc2)cc1 | · | 5.7 | 10.8 | -1.5 | i | 3.9% | -2.3 | 0.71 | 0.4
COc1ccccc1NC(=O)N(C)C[C@@H]1OCc2cnnn2CCCC(=O)N([C@H](C)CO)C[C@H]1C | · | 0.9&0.0 | 6.5&0.0 | -1.6&0.3 | i | · | 1.3 | · | -1.8&1.6
CCN(CC(=O)Nc1ccccc1-c1ccccc1)Cc1nc2ccccc2c(=O)[nH]1 | -0.7 | -24.9* | -17.9* | -0.2* | · | -6.6% | 2.3 | 0.691 | -0.2
COc1ccc2[nH]c(=O)c(CNc3ccc(C)cc3C)cc2c1 | -25.8 | 2.7 | -0.3 | -0.8 | i | 8.9% | 6.3 | 0.682 | 5.4
CN(CC1CCOCC1)C(=O)CC1C(=O)NCCN1Cc1ccc(-c2ccccc2)cc1 (stereo not drawn) | -9.4 | -4.6 | -3.1 | 0.5 | i | 2.7% | 2.4 | 0.664 | 0.4
CN1CCN(C(CNC(=O)C(=O)NC2CCCCC2)c2ccc(F)cc2)CC1 (stereo not drawn) | · | 5.2 | 4.5 | -1.3 | i | -9.7% | -0.1 | 0.665 | -8.1
Cc1cc(=O)[nH]c(SCC(N)=O)c1C#N | -1.2 | · | · | · | · | -9.9% | 2.5 | 0.773 | ·
Cc1nonc1NCn1nnc2ccccc21 | -19.7 | · | · | · | · | 3.7% | -0.5 | 0.711 | ·
C[C@H]1CN([C@@H](C)CO)C(=O)CCCn2nncc2CO[C@@H]1CN(C)C(=O)Nc1ccc(F)cc1 | · | 0.9 | 3.1 | 1.4 | i | · | · | · | -2.5
C[C@H]1CN([C@@H](C)CO)C(=O)Cc2cc(NS(=O)(=O)c3ccccc3)ccc2O[C@H]1CN(C)CC1CCCCC1 | · | 6.6 | 4.6 | 2.4 | i | · | · | · | 2.6
COc1ccc(C)cc1NC(=O)CSc1nnc2ccc(-c3ccncc3)nn12 | -5.5 | 3.6 | 15.6 | -2.2 | i | 5.3% | -0.4 | 0.681 | -2.7
OCCNc1nc(N2CCCCC2)nc2ccccc12 | · | -4.3 | 6.1 | -2.4 | i | -2.3% | 0.4 | 0.682 | 1.6
Cc1ccc(-n2nc(C(=O)O)c(O)cc2=O)cc1 | 0.5 | 4.8 | 0.8 | 0.0 | i | ? | -2.6 | 0.7 | -2.6
COc1ccc(O)c(CN2CCCC(N3CCc4ccccc4C3)C2)c1 (stereo not drawn) | 25.3 | 1.2 | 8.3 | -0.8 | i | -9.8% | -2.4 | 0.703 | 7.0
Cc1ccc(N(C(=O)c2csnn2)C(C(=O)NC(C)(C)C)c2cccnc2)cc1 (stereo not drawn) | -10.1 | 11.3 | 14.9 | 1.7 | i | · | -4.2 | 0.652 | -0.2
C/C(=N\O)C(=O)NCCN(C)C | -2.1 | · | · | · | · | ? | 1.4 | · | ·
COc1ccc(NC(=S)N(CCc2nc3cc(C)c(C)cc3[nH]2)Cc2cccnc2)cc1 | · | · | · | · | · | ? | -0.6 | 0.702 | ·
Cc1c(NC(=O)c2ccc(Br)o2)cccc1C(=O)O | -8.5 | 11.0 | 11.9 | -8.3 | i | 7.4% | -0.4 | 0.653 | 4.6
CN1CCN(c2nc(-c3ccc(Br)cc3)nnc2-c2ccccc2)CC1 | 35.0 | · | · | · | · | -7.2% | -0.3 | 0.69 | ·
CCCc1nnc(SCC(=O)Nc2ccccc2F)o1 | -4.5 | 3.4 | -0.6 | 1.1 | i | · | 1.9 | 0.697 | -1.0
CO[C@H]1CN(C)C(=O)c2cc(NC(=O)c3ccccc3)ccc2OC[C@@H](C)N(C(C)=O)C[C@H]1C | · | -1.9 | 8.3 | -1.0 | i | · | · | · | 2.4
CNC[C@@H]1Oc2ccc(NS(=O)(=O)c3c(C)noc3C)cc2CC(=O)N([C@H](C)CO)C[C@@H]1C | · | 2.6 | 2.0 | -0.2 | i | · | · | · | -1.3
O=C(NCc1ccccn1)C(=O)NN=C1CCCCCCCCCCC1 | -9.2 | 17.4 | 9.3 | -2.6 | i | 1.3% | 4.0 | 0.679 | 1.9
N#C[C@@H]1[C@H](c2ccc(C#CCC3CCCC3)cc2)[C@@H](CO)N1C(=O)CN1CCOCC1 | · | -33.6 | -66.6 | -3.5 | i | · | · | · | 8.2
C[C@H](CO)N1C[C@H](C)[C@H](CN(C)S(=O)(=O)c2cccs2)OCCCC[C@H](C)Oc2ccc(NC(=O)CCC(F)(F)F)cc2C1=O | · | -2.3 | -4.3 | -1.1 | i | · | · | · | -0.4
COc1ccc(CN(CCO)CCO)cc1[N+](=O)[O-] | 7.6 | 0.2 | 2.1 | -2.5 | i | · | 3.7 | 0.711 | 3.8
COc1ccc(CNC(=O)c2cc3c(c(-c4cccc(-c5cccc(C#N)c5)c4)n2)[C@H](CCO)N([S@@](=O)C(C)(C)C)C3)cc1 | · | -52.4 | -53.5 | -1.5 | i | · | · | · | 9.5
COc1ccccc1N1CCN(C(=O)c2ccc(S(=O)(=O)N3CCCCCC3)cc2)CC1 | -8.2 | · | · | · | · | -1.5%&4.1% | -0.4 | 0.745 | ·
CC(C)OC(=O)C1C2C=CC3(CN(CC4CCCO4)C(=O)C13)O2 (stereo not drawn) | -4.4 | · | · | · | · | -1.1% | -1.6 | 0.723 | -0.7
COn1c(=O)c(-c2cccc(Br)c2)[n+]([O-])c2ccccc21 | -3.3 | 0.6 | 3.9 | -3.4 | i | · | 0.5 | 0.683 | -3.5
COc1ccc(S(=O)(=O)Nc2ccc3c(c2)CC(=O)N([C@H](C)CO)C[C@H](C)[C@@H](CN(C)Cc2ccc(C(=O)O)cc2)O3)cc1 | · | -0.6 | -3.9 | 0.7 | i | · | · | · | 0.3
NNc1nc2sc3c(c2c(=O)[nH]1)CCc1ccccc1-3 | -0.4 | -3.4 | 3.1 | 0.5 | i | · | 1.3 | 0.66 | 2.8
CC(C)NC(=O)N(C)C[C@H]1Oc2cc(C#C[C@H](C)O)ccc2S(=O)(=O)N([C@@H](C)CO)C[C@@H]1C | · | 3.4 | 3.4 | -0.7 | i | · | · | · | -2.2
COc1cc(NC(=O)c2cc(-c3ccc(C)cc3)on2)cc(OC)c1OC | · | 6.6 | 3.8 | -2.3 | i | 0.2% | -0.6 | 0.614 | -3.4
CNC[C@@H]1Oc2ccc(NC(=O)Nc3ccc(OC)cc3)cc2CC(=O)N([C@@H](C)CO)C[C@H]1C | · | 2.5 | -2.2 | -1.4 | i | · | · | · | -12.0
CCOC(=O)[C@]12CCC=C1N(Cc1ccc(Cl)cc1Cl)C(=O)[C@H](CC(=O)NCc1ccc(OC)c(OC)c1)C2 | · | 0.3 | 1.3 | 3.0 | i | · | 2.0 | · | 0.1
O=S(=O)(c1ccc(F)c(F)c1F)N1CCN(C(=S)Nc2ccccc2)CC1 | -8.7 | 5.1 | -1.3 | -0.6 | i | 24.9% | -3.5 | 0.656 | -12.1
CCOC(=O)c1cnc(-n2nc(C)cc2C)nc1NC1CCCCC1 | 30.7 | · | · | · | · | 8.0% | -0.3 | 0.65 | ·
O=C(NCc1ccccn1)C1CCCN(S(=O)(=O)c2ccccc2)C1 (stereo not drawn) | -5.2 | · | · | · | · | -8.9% | -1.1 | 0.7 | ·
CCCNC(=O)N1C[C@H](O)COC[C@H]2O[C@@H](CC(=O)NCc3ccc(Cl)c(Cl)c3)CC[C@@H]21 | · | -7.5 | -7.0 | 3.9 | i | · | · | · | -1.6
COC(=O)[C@H](CC(C)C)N(Cc1ccccc1)S(=O)(=O)N(Cc1ccccc1)[C@@H](CC(C)C)C(=O)OC | -3.7 | 5.7 | 12.7 | -0.5 | i | · | 4.0 | · | 1.0
O=C(c1ccc(Cl)cc1)C1CCCN(Cc2cnn(-c3ccccc3)c2)C1 (stereo not drawn) | -56.7 | -52.7 | -80.0 | -13.1 | · | 3.2% | 2.6 | 0.634 | 6.8
CCN(C[C@H]1N[C@@H](CO)[C@@H]1c1ccc(C2=CCCC2)cc1)C(=O)c1ccncc1 | · | -0.9 | -7.0 | 2.9 | i | · | · | · | 3.6

Compound activity (PubChem BioAssay)

The list is partial; the hit share may differ from the screen's.
